From PubChem
StopGo reporter = High Throughput Screening for Foot and Mouth Disease Virus Antivirals. human cells with a luciferase reporter of 2A StopGo recoding; control for the full effect not named in the record. Potency, µM (series often up to 57.9 µM), without a hit: at the highest dose signal change, negative = less light. actives 1.2% (n = 410,000). AID 1159524, 2015; active = well fitted falling curve with a large enough effect; inconclusive = small, poorly fitted or top-dose-only effect; inactive = no such curve, though single readings can be large or run the other way; tested in HEK293T cells; also: % is scaled to controls: 0 for no effect and ±100 for the full control effect; nearly all actives have a fitted effect of over 45% in size; luciferase light after 4 h
MARV entry inh = qHTS for inhibitors of binding or entry into cells for Marburg Virus; Potency, µM (series often up to 37.8 µM), for inactives: at the top dose activity change, negative = inhibition, most hits filed as inhibitors; AID 540276, 2011; actives 1.8% (n = 300,000); Marburg virus pseudotyped entry inhibition, cell reporter; control for the full effect not named in the record; about a third of the inactives were read at about 46 µM; active = well fitted inhibition curve with a large enough effect; inconclusive = small, poorly fitted or top-dose-only effect, or effect the other way; inactive = flat fitted curve, though single readings scatter; tested in HEK293 cells; about a fifth of its hits are not listed in these tables; also: % is scaled to controls: 0 for no effect and ±100 for the full control effect; luciferase read-out
SARS PLP yeast = qHTS of Yeast-based Assay for SARS-CoV PLP | S. cerevisiae expressing SARS-CoV PLpro, growth rescue; control for the full effect not named in the record | Potency, µM (highest dose often 32.9 µM), inactives show at the highest dose activity, positive = growth rescue | actives 0.19% (n = 330,000) | AID 485353, 2010; active means well fitted rising curve with a large enough effect; inconclusive means small, poorly fitted or top-dose-only effect; inactive means no such curve, though single readings can be large or run the other way; also: 0% is about no effect; nearly all actives have a fitted effect of over 55% in size; growth read by luminescence after 48 h
LASV entry inh = qHTS for Inhibitors of binding or entry into cells for Lassa Virus | Lassa virus pseudotype entry inhibition, cell reporter; control for the full effect not named in the record | Potency, µM (top dose mostly 37.9 µM), inactives show top-dose activity change, negative = inhibition, most hits filed as inhibitors | actives 1.2% (n = 300,000) | AID 540256, 2011; active means well fitted inhibition curve with a large enough effect; inconclusive means small, poorly fitted or top-dose-only effect, or effect the other way; inactive means flat fitted curve, though single readings scatter; tested in HEK293 cells; also: % is scaled to controls: 0 for no effect and ±100 for the full control effect; nearly all actives have a fitted effect of over 50% in size; luciferase read-out
Cruzain noTriton = qHTS Assay for Promiscuous and Specific Inhibitors of Cruzain (without detergent); Cruzipain (Trypanosoma cruzi), P25779; purified cruzain, Z-FR-AMC fluorescence, no detergent; Potency, µM, for the others: max response, negative = inhibition, hits mostly inhibitors; actives 2.3% (n = 200,000);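 also: plate controls were enzyme without inhibitor for no effect and buffer without enzyme for full effect; nearly all actives have a fitted effect of over 40% in size; top concentration of the series not given in the record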
Target sequence (P25779 123-467 limits assumed): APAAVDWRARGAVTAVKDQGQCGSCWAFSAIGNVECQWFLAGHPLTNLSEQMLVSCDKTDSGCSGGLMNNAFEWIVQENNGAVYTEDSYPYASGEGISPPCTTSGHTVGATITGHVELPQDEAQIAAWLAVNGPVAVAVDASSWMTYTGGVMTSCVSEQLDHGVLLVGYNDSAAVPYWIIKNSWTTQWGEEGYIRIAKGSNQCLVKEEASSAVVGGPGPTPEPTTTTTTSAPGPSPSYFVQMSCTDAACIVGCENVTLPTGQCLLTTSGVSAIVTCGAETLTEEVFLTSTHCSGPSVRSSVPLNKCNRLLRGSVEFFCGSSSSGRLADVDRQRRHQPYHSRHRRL
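Detergent-free condition (0.00005% Triton X-100) in acetate buffer pH 5.5 with DTT. 1.5 nM enzyme and compound were pre-mixed 15 min, then 2 uM Z-FR-AMC substrate added; reaction progress from fluorescence change between first and third reads (60 s).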
Cruzain Triton = qHTS Assay for Promiscuous and Specific Inhibitors of Cruzain (with detergent) | Cruzipain (Trypanosoma cruzi), P25779 | purified cruzain, Z-FR-AMC fluorescence, 0.01% Triton | Potency, µM, for the others: max response, negative = inhibition, most hits filed as inhibitors | actives 0.43% (n = 200,000) | AID 1478, 2009;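 also: plate controls were neutral wells for no effect and buffer without enzyme for full effect; nearly all actives have a fitted effect of over 40% in size; top concentration of the series not given in the record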
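Enzyme 1.5 nM, Z-FR-AMC 2 uM, NaOAc 100 mM pH 5.5, DTT 5 mM, Triton X-100 0.01%; 15 min RT compound preincubation; kinetic ex360/em450, 60 s delta.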
RE007 growth inh = qHTS Assay for Inhibitors of the HIV-1 protein Vpr; actives 0.21% (n = 360,000); Potency, µM (top dose mostly 92.2 µM), without a hit: top-dose activity change, negative = less growth; S. pombe RE007 Vpr strain, BacTiter-Glo ATP luminescence, 24 h; control for the full effect not named in the record; active = well fitted falling curve with a large enough effect; inconclusive = small, poorly fitted or top-dose-only effect; inactive = no such curve, though single readings can be large or run the other way;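 also: % is scaled to controls: 0 for no effect and ±100 for the full control effect; nearly all actives have a fitted effect of over 50% in size; the assay follows cell death caused by Vpr and the record does not say whether a fall means rescue or toxicity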
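Fission yeast RE007 carrying one integrated HIV-1 vpr copy, seeded at OD 0.01 in PMG+AL medium with 23 nL pinned compound. Grown 24 h at 30 degrees; viability read by BacTiter-Glo luminescence after 5 min.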
NS1 inh = qHTS Assay for Inhibitors of Influenza NS1 Protein Function; AID 2326, 2010; S. cerevisiae slowed by influenza A NS1, growth recovery by OD600; actives 0.4% (n = 270,000); Potency, µM (titrated, usually from 46.1 µM), without a hit: top-dose activity, positive = more growth; active means well fitted rising curve with a large enough effect; inconclusive means small, poorly fitted or top-dose-only effect; inactive means no such curve, though single readings can be large or run the other way; also: nearly all actives have a fitted effect of over 50% in size
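S. cerevisiae expressing influenza A NS1, grown in glucose, washed, then diluted 1:100 into pH 6.0 -URA galactose medium with 23 nl compound. Growth recovery read as OD600; NS1-free strain serves as control.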
An asterisk follows results filed as active; & = joins results of further samples; [ ] = remark or other dose. Unless noted, calls follow the shape of the dose curve; as a rule, active = well fitted curve in the direction sought with a large enough effect; inconclusive = small, poorly fitted or top-dose-only effect, or another doubt; inactive = no such curve, though single readings can be large; an effect the other way counts as inactive or inconclusive. Potency is read from the fitted curve at half-maximal effect.

How did COc1ccc(CN2CCN(C(=O)CN3C(=O)C4C5C=CC(C5)C4C3=O)CC2)c(OC)c1OC (stereo unspecified) do in these assays?
StopGo reporter: inconclusive; MARV entry inh: inconclusive; SARS PLP yeast: 0%; LASV entry inh: -24%; Cruzain noTriton: 5%; Cruzain Triton: 2.0%; RE007 growth inh: 30%; NS1 inh: -1%

What do the screens show for `COc1ccc(S(=O)(=O)N2CCC(C(=O)NCc3ccc(C)cc3)CC2)cc1`?
StopGo reporter: -4%; MARV entry inh: 4%[46.1 µM]; SARS PLP yeast: 1%; LASV entry inh: -25%; RE007 growth inh: 10%; NS1 inh: -7%

How did CC(C)c1ccc(NS(=O)(=O)c2ccc3[nH]cc(C(=O)N4CCCC4)c(=O)c3c2)cc1 do in these assays?
StopGo reporter: 31%[activator]; MARV entry inh: -2%[46.1 µM]; LASV entry inh: inconclusive; Cruzain noTriton: 14%; Cruzain Triton: -5.9%

What do the screens show for `O=C(CSc1nncs1)N1CCN(C(=O)c2ccco2)CC1`?
StopGo reporter: -30%; MARV entry inh: 17%; LASV entry inh: -2%; RE007 growth inh: 17%

What do the screens show for `O=C(Nc1ccc(F)cc1F)c1ccccc1NC(=O)C1CC=CCC1C(=O)O` (stereo unspecified)?
StopGo reporter: 0%; MARV entry inh: inconclusive; SARS PLP yeast: -1%; LASV entry inh: 13%[46.1 µM]; RE007 growth inh: -4%; NS1 inh: -1%

Results for COc1ccc(C)cc1NC(=S)N1CCN(S(C)(=O)=O)CC1 ?
StopGo reporter: -7%; MARV entry inh: 31%; SARS PLP yeast: -5%; LASV entry inh: 19%; Cruzain noTriton: -2%; Cruzain Triton: -0.9%; RE007 growth inh: -1%; NS1 inh: 10%

How did COC(=O)c1ccc(C2C(C(=O)OC(C)C)=C(C)N=C3SCCC(=O)N32)cc1 (stereo unspecified) do in these assays?
MARV entry inh: 0%; SARS PLP yeast: inconclusive; Cruzain noTriton: inconclusive; Cruzain Triton: -7.4%; NS1 inh: -12%

How did CCCOc1ccc(-c2c(C(=O)N/N=C(\C)c3cccnc3)nnn2-c2nonc2N)cc1 do in these assays?
StopGo reporter: -5%; MARV entry inh: 7%[46.1 µM]; SARS PLP yeast: -1%; LASV entry inh: inconclusive; RE007 growth inh: 8%; NS1 inh: 25%

What do the screens show for `O=C(NCC1CCCO1)c1ccc(CS(=O)(=O)c2ccc(Cl)cc2)o1` (stereo unspecified)?
StopGo reporter: 3%; MARV entry inh: -15%; SARS PLP yeast: -10%; LASV entry inh: -14%; Cruzain noTriton: 1%; Cruzain Triton: -1.2%; RE007 growth inh: 4%; NS1 inh: 3%

How did CCOc1ccccc1C1CC(=O)Nc2cc3c(cc21)OCCO3 (stereo unspecified) do in these assays?
StopGo reporter: 18µM*; MARV entry inh: 8.2µM*; SARS PLP yeast: -3%; LASV entry inh: inconclusive; Cruzain noTriton: -12%; Cruzain Triton: -4.2%; RE007 growth inh: -2%; NS1 inh: -16%

What do the screens show for `CCCCCCOc1ccc(/C=c2\s/c(=C(/C#N)C(=O)NCc3ccco3)n(-c3ccccc3)c2=O)cc1`?
StopGo reporter: 5%; MARV entry inh: 20%[46.1 µM]; SARS PLP yeast: 7%; LASV entry inh: -7%; Cruzain noTriton: 3.2µM*; Cruzain Triton: -0.9%; RE007 growth inh: 11%; NS1 inh: 10%

How did Fc1ccc(Cn2nnnc2C(c2cccs2)N2CCN(C3CCCCC3)CC2)cc1 (stereo unspecified) do in these assays?
StopGo reporter: -24%; SARS PLP yeast: 0%; RE007 growth inh: -9%; NS1 inh: 1%

Results for CCCn1c(=O)c2c(nc3n2CCCN3CCc2ccccc2)n(C)c1=O ?
StopGo reporter: inconclusive; MARV entry inh: inconclusive; SARS PLP yeast: 1%; LASV entry inh: -23%; RE007 growth inh: -12%; NS1 inh: -6%

How did CC(Oc1ccccc1F)C(=O)Nc1ccc(-c2nc3ccccc3s2)cc1 (stereo unspecified) do in these assays?
StopGo reporter: 19%; MARV entry inh: 3%[46.1 µM]; LASV entry inh: 5%[46.1 µM]; Cruzain noTriton: -4%; Cruzain Triton: 4.0%

How did O=c1c(N2CCCCC2)coc2ccccc12 do in these assays?
StopGo reporter: 54%[activator]; MARV entry inh: 18%; SARS PLP yeast: -3%; LASV entry inh: inconclusive; Cruzain noTriton: -3%; Cruzain Triton: -15%; RE007 growth inh: 0%; NS1 inh: 4%

How did Cc1cc(SCC(=O)NC2CCCCC2)nc2ccccc12 do in these assays?
StopGo reporter: 1%; MARV entry inh: 1%[46.1 µM]; SARS PLP yeast: -3%; LASV entry inh: -23%[46.1 µM]; RE007 growth inh: 1%; NS1 inh: -22%

How did CC(=O)c1ccc(CCCCCCCCCC(=O)O)s1 do in these assays?
StopGo reporter: -28%; MARV entry inh: inconclusive; SARS PLP yeast: 1%; LASV entry inh: 3%; Cruzain noTriton: -1%; Cruzain Triton: -4.2%; RE007 growth inh: -14%; NS1 inh: -3%

How did CCN(CCCNC(=O)CN1N=C(c2ccccc2)CCC1=O)c1ccccc1 do in these assays?
StopGo reporter: -8%; LASV entry inh: -4%[46.1 µM]; Cruzain noTriton: 15%; Cruzain Triton: 0.1%

Results for COc1ccc(C(=O)Nc2ccc(Cl)cn2)cc1Cl ?
MARV entry inh: 2%; SARS PLP yeast: 0%; LASV entry inh: -18%; Cruzain noTriton: -7%; Cruzain Triton: -11%; RE007 growth inh: -7%; NS1 inh: -18%

Results for CCNC(=O)n1cc(-n2cncn2)c(-c2ccc(Cl)cc2)n1 ?
StopGo reporter: -8%; MARV entry inh: -4%[46.1 µM]; SARS PLP yeast: 2%; LASV entry inh: -5%[46.1 µM]; RE007 growth inh: 8%

Results for Cc1nc2ccccc2n1CCc1nc2c3ccccc3nc(=S)n2[nH]1 ?
StopGo reporter: -15%; MARV entry inh: 1%; SARS PLP yeast: 2%; LASV entry inh: 1%; Cruzain noTriton: -7%; Cruzain Triton: -5.0%; RE007 growth inh: -5%; NS1 inh: -4%

How did O=C(Cn1ncc2c3ccccc3n(Cc3cccc(Cl)c3)c2c1=O)NCCCN1CCCCC1 do in these assays?
StopGo reporter: -9%; MARV entry inh: 8%[46.1 µM]; LASV entry inh: 26%[46.1 µM]; Cruzain noTriton: 0%; Cruzain Triton: -5.8%

Results for Cc1c(C(=O)N2CCOCC2)[nH]c2c1C(=O)CC(c1ccccc1Cl)C2 (stereo unspecified) ?
MARV entry inh: inconclusive; SARS PLP yeast: 6%; LASV entry inh: inconclusive; Cruzain noTriton: -30%; Cruzain Triton: -3.6%; RE007 growth inh: 7%; NS1 inh: -6%

What do the screens show for `COC(=O)c1[nH]c2ccc(C)cc2c1NC(=O)CN1CCc2cc(OC)c(OC)cc2C1`?
StopGo reporter: inconclusive; MARV entry inh: inconclusive; SARS PLP yeast: 7%; LASV entry inh: -23%; Cruzain noTriton: 13%; Cruzain Triton: -0.8%; RE007 growth inh: -11%; NS1 inh: -8%

Results for Fc1ccc(-c2nnc(CN3CCN(c4ncc(C(F)(F)F)cc4Cl)CC3)o2)cc1 ?
StopGo reporter: inconclusive; MARV entry inh: -24%&-24%; SARS PLP yeast: inconclusive; LASV entry inh: 0%; Cruzain noTriton: inconclusive; Cruzain Triton: -8.4%; RE007 growth inh: 13%; NS1 inh: -41%

How did CCCOC1CCCN(C(=O)c2cc(COc3ccc(-n4cncn4)cc3)on2)C1 (stereo unspecified) do in these assays?
StopGo reporter: -9%; SARS PLP yeast: 0%; RE007 growth inh: -6%; NS1 inh: -10%

Results for Cc1cc(C)cc(Oc2coc3cc(O)ccc3c2=O)c1 ?
StopGo reporter: 2%; SARS PLP yeast: -6%; RE007 growth inh: 4%; NS1 inh: -1%

What do the screens show for `CC(=O)c1cccc(NC(=O)CC2Oc3ccc(C)cc3NC2=O)c1` (stereo unspecified)?
StopGo reporter: -12%; SARS PLP yeast: 2%; Cruzain noTriton: 2%; Cruzain Triton: -6.9%; RE007 growth inh: 9%; NS1 inh: inconclusive

What do the screens show for `Cn1c(CNC(=O)CNS(=O)(=O)c2ccc(F)cc2F)cc(=O)n(C)c1=O`?
StopGo reporter: -12%; SARS PLP yeast: -4%; RE007 growth inh: -9%; NS1 inh: -6%

What do the screens show for `CC(C)CNC(=O)COC(=O)c1cc(S(=O)(=O)N2CCCCC2)ccc1N1CCOCC1`?
StopGo reporter: -1%; MARV entry inh: -2%&-2%; SARS PLP yeast: 3%; LASV entry inh: 1%; Cruzain noTriton: inconclusive; Cruzain Triton: -1.8%; RE007 growth inh: 9%; NS1 inh: -11%

How did COc1cc(/C=N\NC(=O)CNC(=O)C2COc3ccccc3O2)ccc1O (stereo unspecified) do in these assays?
StopGo reporter: -22%; MARV entry inh: 1%; SARS PLP yeast: 10%; LASV entry inh: 8%; Cruzain noTriton: -1%; Cruzain Triton: 0.1%; RE007 growth inh: 7%; NS1 inh: 6%

What do the screens show for `CCCCNC(=S)N=Nc1c(O)[nH]c2ccccc12`?
StopGo reporter: 18%; MARV entry inh: inconclusive; SARS PLP yeast: -12%; LASV entry inh: -30%[46.1 µM]; RE007 growth inh: -6%

Results for CCOc1ccc(N(CC(=O)Nc2ccccc2OCC)S(=O)(=O)c2c(C)noc2C)cc1 ?
StopGo reporter: -28%; SARS PLP yeast: -2%; RE007 growth inh: -13%; NS1 inh: 24%

What do the screens show for `CC(=O)c1ccc(NC(=S)NC(=O)CC(C)C)cc1`?
StopGo reporter: 48%[activator]; MARV entry inh: 18%; SARS PLP yeast: -9%; LASV entry inh: 20%; Cruzain noTriton: -14%; Cruzain Triton: -3.1%; RE007 growth inh: 7%; NS1 inh: 10%
